# VACV Venus inh – inhibitors of vaccinia virus (Venus reporter); Vaccinia virus Venus reporter expression, fluorescence; Potency, µM (highest dose often 36.5 µM), without a hit: at the top dose activity change, negative = inhibition, hits mostly inhibitors; AID 720580; 0.46% of 330,000 active; active means well fitted inhibition curve with a large enough effect; inconclusive means small, poorly fitted or top-dose-only effect; inactive means no such curve, though single readings can be large or run the other way; tested in A549 cells; note: nearly all actives have a fitted effect of over 30% in size; inactives centre near -10
# VACV mCherry inh – vaccinia inhibition (mCherry reporter) | 0.63% of 310,000 active | Potency, µM (highest dose often 36.5 µM), for the others: at the highest dose activity change, negative = inhibition, actives largely listed as inhibitors | Vaccinia virus mCherry reporter infection, fluorescence; about a quarter of the inactives have no number; active = well fitted inhibition curve with a large enough effect; inconclusive = small, poorly fitted or top-dose-only effect; inactive = no such curve, though single readings can be large or run the other way; tested in A549 cells; note: nearly all actives have a fitted effect of over 35% in size; inactives centre near -10
# * = called active by the depositor; i = inactive; ? = inconclusive; / = not tested or not shown; & = joins results of further samples; [ ] = remark or other dose. % is set by controls: 0 for no effect and ±100 for the full control effect; potency is the fitted concentration of half-maximal effect.
structure	VACV Venus inh	VACV mCherry inh
CCOC(=O)c1c(Oc2ccc(C(C)=O)cc2)nnc(-c2ccccc2)c1-c1ccccc1	-3%	-12%
COc1cccc(NC(=O)CN(C)C(=O)c2cccc(S(=O)(=O)Nc3ccccc3OC)c2)c1	-20%	-16%
Cc1noc(NS(=O)(=O)c2ccc(N/C=C\C(=O)c3ccccc3)cc2)c1C	3%	9%
Cc1c([N+](=O)[O-])c(C(=O)NC2CCCCC2)nn1C	-5%	-10%
CCOC(=O)c1cc(-c2ccccc2)sc1NC(=O)CN1C(=O)c2ccccc2C1=O	-6%	/
Cc1cccc(NC(=S)Nc2ccc(Oc3ccccc3)cc2)n1	-28%	-15%
CCC(=O)N1CCc2cc(Br)cc(S(=O)(=O)N3CCC(C(=O)Nc4ccccc4F)CC3)c21	-26%	-26%
Cc1ccc(CCNC(=O)c2ccc3[nH]c(C)c(C)c3c2)cc1	-12%	i
COc1ccc(-c2nc(C#N)c(N3CCC(C(N)=O)CC3)o2)cc1	5%&-2%	38%[activator]
Cc1cc(C)cc(OCc2nnc(SCC(=O)NC3CC3)n2C)c1	-12%	-2%
COc1ccc(-c2ncc3ccccn23)cc1	5%	/
Cc1ccc(N2C(=O)NC(NS(=O)(=O)c3ccccc3)(C(F)(F)F)C2=O)cc1C (stereo not given)	-18%&-4%	-4%&-12%
O=C(COC(=O)c1cccs1)NCCCc1ccccc1	-8%	i
CC(C)C[C@H]1CNC(=O)C(=O)N1C[C@H](C)NC(=O)Cc1ccccc1	-6%	i
Cc1ccc(S(=O)(=O)N2CCC(C(=O)N3CC(C)OC(C)C3)CC2)cc1 (stereo not given)	-7%	-13%
CC(C)Oc1ccc(CNC(=O)c2cnc3sc(N4CCCCC4)nn3c2=O)cc1	-9%	1%
COc1ccc(NC(=O)CN(C)C(=O)c2ccccc2SCC(=O)N2CCCC2)cc1	-11%	i
C(=NC1CCCCC1)c1c[nH]c2ccccc12	-8%	i
O=C(O)c1ccc(CSc2nnc(-c3ccccc3Cl)n2-c2ccccc2)cc1	-2%	-8%
Cc1ccc(C(=O)NNC2=NCCC2)cc1	-1%	i

# Individual results from the list:
# VACV Venus inh, C(=NC1CCCCC1)c1c[nH]c2ccccc12 reads -8%
# VACV Venus inh, CC(C)C[C@H]1CNC(=O)C(=O)N1C[C@H](C)NC(=O)Cc1ccccc1 reads -6%
# VACV mCherry inh, O=C(O)c1ccc(CSc2nnc(-c3ccccc3Cl)n2-c2ccccc2)cc1 reads -8%
# VACV Venus inh, Cc1ccc(N2C(=O)NC(NS(=O)(=O)c3ccccc3)(C(F)(F)F)C2=O)cc1C (stereo not given) reads -18%&-4%
# VACV Venus inh, COc1ccc(NC(=O)CN(C)C(=O)c2ccccc2SCC(=O)N2CCCC2)cc1 reads -11%
# VACV Venus inh, Cc1ccc(S(=O)(=O)N2CCC(C(=O)N3CC(C)OC(C)C3)CC2)cc1 (stereo not given) reads -7%

# Next section
structure	VACV Venus inh	VACV mCherry inh
O=c1[nH]c2ccccc2n1C1CCN(CCOc2ccccc2)CC1	-15%	-15%
CCN(C(=O)CSc1nnc(Cn2nnc3ccccc32)o1)c1nc(-c2ccccc2)cs1	-10%	?
Cc1cc(Cl)ccc1NC(=O)COC(=O)c1cc([N+](=O)[O-])ccc1N1CCOCC1	-17%	i
Cc1n[nH]c(=O)n1-c1ccc(C(C)(C)C)cc1	4%	7%
O=C(Nc1ccc(Cl)cc1)C1CCN(c2nc3ccccc3nc2C(F)(F)F)CC1	-11%	6%
COc1ccc(OC)c(N/C(C)=C/C(=O)c2ccncc2)c1	-19%	-15%
Cc1nn(Cc2c(F)c(F)c(F)c(F)c2F)c(C)c1NC(=O)c1ccnn1C	?	-17%
CCOC(=O)C1C(C(=O)Nc2cccc(C(F)(F)F)c2)C1C(=O)NC(C)C (stereo not given)	-4%	i
Cc1cccc(-n2nc3c(c2NC(=O)c2ccc(Br)o2)CSC3)c1C	0%	i
O=C(Nc1ccc(S(=O)(=O)N2CCOCC2)cc1)c1ccc(F)cc1	1%	9%
Fc1cccc(Cl)c1COc1ccc(-c2nnco2)cc1	-21%	-19%
COc1ccc(C2CC(c3ccccc3OC(C)=O)=NN2C(=O)/C=C/c2ccccc2)cc1 (stereo not given)	-20%	-12%
COCCNC(=O)C1CCCN(Cc2ccc(C#N)cc2)CC1 (stereo not given)	-1%	13%
COc1cc(N)ccc1Cc1ccc(N)cc1OC	-12%	i
COc1ccccc1S(=O)Cc1ccc(C(=O)NCCc2ccc(Cl)cc2)o1 (stereo not given)	-9%	16%
Cc1cc(C)c(S(=O)(=O)C(C)C)c(=O)[nH]1	-1%	i
COc1cc(OC)nc(Oc2ccccc2C(=O)Oc2ccccc2Cl)n1	-1%	-21%
Oc1ccc(Nc2nc3ccccc3n3cnnc23)cc1	7%	-12%
O=C(CN1CCN(c2cccc(C(F)(F)F)c2)CC1)Nc1cccc(C(F)(F)F)c1	-17%	/
CCCCNCC(=O)Nc1sc(C)c(C)c1C(=O)OCC	-1%	-5%
CC(OC(=O)/C=C/c1ccccc1)C(=O)Nc1cccc(C#N)c1 (stereo not given)	-24%	?
Cc1ccc(S(=O)(=O)N2CCN(S(C)(=O)=O)C2c2ccccc2)cc1 (stereo not given)	-15%	/
NC(=O)N/N=C/c1ccc(-n2nncc2-c2ccc(Cl)cc2)cc1	-20%	-14%
COc1ccc(CCNC(=O)c2c[nH]n3c(=O)c(Cc4ccccc4Cl)c(C)nc23)cc1OC	-2%	-13%
CC(C)COc1ccc(Cc2c(O)[nH]c(=S)[nH]c2=O)cc1	-15%	i
COC(=O)[C@H]1C[C@H](OC(=O)Nc2c(C)noc2C)[C@@]2(O)CN(S(=O)(=O)c3ccc(C)cc3)CC2[C@H]1C(=O)OC (stereo not given in full)	-13%	i
CCN(CC(=O)NCc1ccc(Cl)cc1)C(=O)CCOc1ccccc1C	-26%	?
CC(C)CNC(=O)c1ccc(-c2ccc(F)c(F)c2)c2ccoc12	-29%	-28%
COc1ccc(NC(=O)CSc2c3c(nc4ccccc24)CCCC3)c(OC)c1	-24%	-13%
COc1cccc(-c2cnc(C(O)c3c(C)ccc4ccccc34)[nH]2)c1 (stereo not given)	1%	34%[activator]

# Given with two lines to a compound: entries from further up.
# Screens in order – VACV Venus inh, VACV mCherry inh
- COc1ccc(CCNC(=O)c2c[nH]n3c(=O)c(Cc4ccccc4Cl)c(C)nc23)cc1OC
→ -2%, -13%
- Cc1ccc(S(=O)(=O)N2CCN(S(C)(=O)=O)C2c2ccccc2)cc1 (stereo not given)
→ -15%, /
- COc1ccc(NC(=O)CSc2c3c(nc4ccccc24)CCCC3)c(OC)c1
→ -24%, -13%
- CC(C)COc1ccc(Cc2c(O)[nH]c(=S)[nH]c2=O)cc1
→ -15%, i
- CCN(CC(=O)NCc1ccc(Cl)cc1)C(=O)CCOc1ccccc1C
→ -26%, ?
- CC(OC(=O)/C=C/c1ccccc1)C(=O)Nc1cccc(C#N)c1 (stereo not given)
→ -24%, ?
- COc1cccc(-c2cnc(C(O)c3c(C)ccc4ccccc34)[nH]2)c1 (stereo not given)
→ 1%, 34%[activator]

# Carrying on.
structure	VACV Venus inh	VACV mCherry inh
CC1(C(=O)NCc2cccc(Cl)c2)Cc2c(-c3ccc4c(c3)OCO4)ccnc2O1 (stereo not given)	-16%	?
COc1ccc(C)cc1NC(=O)Cc1c(C(=O)O)c(C)cn1C	-4%	-8%
CN1CCc2c(sc(NC(=O)c3ccco3)c2C(N)=O)C1	-21%	i
CC[n+]1c(/C=C(\C)SC)sc2ccccc21	-10%	?
Cn1nnc2cc(C(=O)NCc3ccco3)ccc21	-11%	-20%
Cc1cc(Oc2ccc(C#N)cc2)nc(NCc2ccccc2)n1	?	-18%
O=C1CN(C(=O)Nc2ccccc2C(F)(F)F)C(c2ccccc2)c2c(sc3c2CCCC3)N1 (stereo not given)	-18%	-15%
Cn1c(=O)cc(OCCCC(=O)Nc2ccc(F)cc2)c2ccccc21	-1%	-18%
O=C(NCCO)C(=O)Nc1c2c(nn1-c1ccc(F)cc1)CSC2	0%	-6%
COc1ccc(C(=O)NCCc2ccccn2)cc1S(=O)(=O)Nc1ccc(Br)cc1	-11%	0%
CCc1nc(C)c(-c2ccccc2)c(=O)[nH]1	-3%	-11%
CNS(=O)(=O)c1cccc(C(=O)OCC(=O)Nc2sc3c(c2C#N)CCCCC3)c1	-4%	-13%
c1ccc(CNc2cccnc2)cc1	-13%	i
CN(C(=O)COC(=O)c1cccnc1Nc1cccc(C(F)(F)F)c1)C1CCS(=O)(=O)C1 (stereo not given)	-14%	-15%
Cc1ccc(S(=O)(=O)CC(O)COc2ccc(C#N)cc2)cc1 (stereo not given)	-5%	-17%
CC1(C)C2CCC1(CS(=O)(=O)NCc1ccc(C(F)(F)F)cc1)C(=O)C2 (stereo not given)	-25%	-7%
CC(=O)Nc1n[nH]c(S(=O)(=O)Cc2ccc(Cl)cc2Cl)n1	-12%	/
Cc1cc(C)cc(NC(=O)NC(C)C2CCCO2)c1 (stereo not given)	-6%	-9%
CCc1nnc(NC(=O)CN2CCN(Cc3cccc(Cl)c3)CC2)s1	-11%	-14%
CC(=O)N1CCc2cc(CNS(=O)(=O)c3ccc(Br)s3)ccc21	-5%	-9%
O=C(COc1ccc(Cl)cc1)NCc1nnc(SCC(=O)N2CCCc3ccccc32)o1	-16%	-1%
CC(C)CC(C(=O)N1CCc2ccccc2C1)N1C(=O)c2ccccc2C1=O (stereo not given)	-33%	/
CCc1cccc(C)c1NC(=O)C1CCCN1C(=O)NCc1ccccc1 (stereo not given)	-14%	-3%
Cc1cccc(N2CCN(c3nnnn3-c3ccccc3)CC2C)c1 (stereo not given)	-13%	-6%
COC(=O)[C@@]1(Cc2ccc(F)cc2)[C@H]2c3cc(C(=O)N4CCCC4)n(CCN4CCNC4=O)c3C[C@H]2CN1C(=O)c1ccccc1	-3%	14%
CC1CCN(C(=O)COc2ccc(S(=O)(=O)N3CCCC3)cc2)CC1	-10%	-21%
CC(C)C(=O)Nc1sc2c(c1C(N)=O)CCN(Cc1ccccc1)C2	-21%	?
CCOc1ccccc1NC(=O)c1cccn(Cc2ccccc2C)c1=O	-15%	-18%
COc1ccc(NC(=O)CN2C(=O)CN=C(c3ccccc3)c3ccccc32)c(OC)c1	-6%	-1%
CC(=O)Nc1ccc(S(=O)(=O)NC2CC(=O)N(c3ccc(C)cc3)C2)cc1 (stereo not given)	-11%	i
O=C(CCC(=O)N1CCOc2ccccc21)NC1CCN(Cc2ccccc2)CC1	-11%	?
Cc1ccc(-c2nnn(CCC(=O)NC3CCCC3)n2)cc1	-11%	-21%
C[C@H]1CN([C@@H](C)CO)C(=O)CCCn2cc(nn2)CO[C@@H]1CN(C)C(=O)Nc1ccc(F)cc1	-17%	-6%
COc1ccc(C(=O)Oc2ccc(F)cc2C(=O)/C=C/c2ccc(OC)c(OC)c2)cc1	-14%	i
CCc1ccccc1NC(=O)N1C[C@H]2C[C@@H](C1)c1cccc(=O)n1C2	15%	i
CC(C)(O)C#Cc1ccc(CN2CCN(Cc3ccsc3)C(CCO)C2)cc1 (stereo not given)	?	-11%
CC(C)(CNC(=O)c1ccc(-c2ccccc2Cl)o1)N1CCOCC1	-19%	-28%
COc1ccc(Br)cc1C(=O)CCC(=O)OCC(=O)Nc1cc(C(N)=O)cc(C(N)=O)c1	0%	-12%
Cc1oc(-c2ccccc2F)nc1CS(=O)CC(=O)NC1CC1 (stereo not given)	-3%	i
CN1C(=O)[C@H]2[C@@H](C3CC3)N3C(=O)CN(CCO)C(=O)[C@@]3(Cc3ccccc3)[C@H]2C1=O	-7%	i
Cc1nn(-c2ccccc2)c2nc(C(F)(F)F)[nH]c(=O)c12	-7%	-2%
O=C(NC1CCC(O)CC1)c1ccc(Br)o1 (stereo not given)	-12%	i
COc1ccc(Oc2ccc(S(=O)(=O)N3CCCCC3)cc2S(=O)(=O)N2CCCCC2)cc1	-1%	?
Cc1ccc2ncc(C)c(/C=C/c3ccc(N(C)C)cc3)c2c1	-17%	-26%
COc1cccc(-n2nnnc2SCC(=O)N2CCCc3ccccc32)c1	-5%	-14%
CCCCn1cnc2c(SCc3ccccc3Cl)nc(N)nc21	0%	0%
COc1ccc(CCNC(=O)c2ccc(F)c(S(=O)(=O)N3CCCCC3)c2)cc1	-22%	-21%
COc1ccccc1Cc1c(-c2ccc(C)cc2)nc2ccc(Cl)cn12	-7%	i
O=C(c1cc(C2CCCCN2C(=O)OCCF)on1)N1CCOCC1 (stereo not given)	3%	-6%
Cc1cc(NC(=O)Cn2nc3c(cc2=O)CCCC3)ccc1Br	-17%	/

# Other results.
structure	VACV Venus inh	VACV mCherry inh
O=C(COC(=O)c1ccccc1F)c1ccc(-n2nncc2-c2ccco2)cc1	-9%	/
O=c1oc2c3c(nn2c2ccccc12)CCCC3	-3%	i
Cc1nc2ccc(C(=O)NCCCn3ccnc3)cn2c1N(C)CC1CCCCC1	-17%	11%
Nc1cc2c(cc1Cl)-c1ccc(Cl)cc1C2	-19%	-10%
CCOC(=O)C1=C(C2=CCCCC2)c2ccc(OC)cc2N(S(=O)(=O)C(F)(F)F)C1C(=O)OCC (stereo not given)	-4%	?
COc1ccc2oc(=O)c(C(=O)N3CCCC3)cc2c1	-15%	i
CCc1nc2c(OCc3ccc(Cl)cc3)cccn2c1N(C)C(=O)C1CC1	-9%	i
COC(=O)c1cc(C)nc2c1C(=O)C(=O)C=C2N1CCOCC1	4.5µM*	?
COc1ccccc1C(=O)Nc1ccc(C(=O)OCc2cc(=O)n3ccsc3n2)cc1	-2%	-12%
